HSV augment – HSV replication enhancement; AID 1956; 220,000 compounds, 0.005% hits; HSV replication augmentation in cells, fold increase; maximum fold increase;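 active = peak rise of 1.5-fold or more in the series; tested in PC3 cells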;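 note: first round at 10 µM; read as green reporter fluorescence; hits show the peak of a series up to 25 µM; 1 = signal of infected wells without compound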
PKD1 inh – inhibitors of human PKD1 kinase; Q15139; PKD1 kinase fluorescence polarization assay; 200,000 compounds, 0.056% hits; inhibition, %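 (about 10 µM by stock and volumes)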; AID 797;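 active = inhibition of 50% or more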;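 note: controls were vehicle for no effect and a reference inhibitor for full effect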
Insulin prom inh – TRM-6 insulin promoter activity inhibition; TRM-6 cells (human fetal islet line), insulin promoter-eGFP reporter, imaging; reporter expression induced with tamoxifen; inhibition, % at 2 µM; 130,000 compounds, 0.9% hits;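 active = inhibition above the mean plus 3 SD, with well images judged a real hit on visual review, cut at about 60% in these data, passing the limit was not always enough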
RGS16-Gao – regulators of human RGS16-Galphao interaction. 220,000 compounds, 0.38% hits. binding response (% of control), % at 10 µM. O15492+P09471. bead-based flow cytometry RGS16-Galphao binding, fluorescence; actives lie on both sides;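 active = below 25% or above 175%, edge rows of some plates excepted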;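 note: Galphao activated by GDP with aluminum fluoride before binding; 100% = wells without compound and 0% = beads without RGS; some results beyond the cut were filed as inactive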
Target sequence (O15492 whole entry, looked up): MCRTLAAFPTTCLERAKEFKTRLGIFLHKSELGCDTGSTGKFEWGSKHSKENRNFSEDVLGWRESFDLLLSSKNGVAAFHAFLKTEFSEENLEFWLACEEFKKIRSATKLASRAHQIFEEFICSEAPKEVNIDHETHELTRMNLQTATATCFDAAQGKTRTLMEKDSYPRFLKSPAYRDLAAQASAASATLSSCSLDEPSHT
Target sequence (P09471 whole entry, looked up): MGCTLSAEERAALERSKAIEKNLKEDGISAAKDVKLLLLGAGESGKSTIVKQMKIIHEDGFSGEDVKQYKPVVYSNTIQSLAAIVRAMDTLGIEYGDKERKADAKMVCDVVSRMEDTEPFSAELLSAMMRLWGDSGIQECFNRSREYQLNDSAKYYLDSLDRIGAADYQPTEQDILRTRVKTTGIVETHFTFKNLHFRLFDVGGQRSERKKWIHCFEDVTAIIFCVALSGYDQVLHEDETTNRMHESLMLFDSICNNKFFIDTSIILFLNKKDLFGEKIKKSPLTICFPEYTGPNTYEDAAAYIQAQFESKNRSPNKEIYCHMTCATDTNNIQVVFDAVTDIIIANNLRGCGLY
GALR2 ag – agonists of human galanin receptor 2 (GALR2). O43603. GALR2-expressing cells, agonist activation read-out. activation, %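 (tested at 5 µM)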. 140,000 compounds, 0.48% hits;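 active = above mean plus 3 SD of all compounds, about 5% in these data, not always enough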;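 note: 0% = vehicle buffer wells and 100% = reference agonist at full effect; tested in CHO reporter cells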
Target sequence (O43603 whole entry, looked up): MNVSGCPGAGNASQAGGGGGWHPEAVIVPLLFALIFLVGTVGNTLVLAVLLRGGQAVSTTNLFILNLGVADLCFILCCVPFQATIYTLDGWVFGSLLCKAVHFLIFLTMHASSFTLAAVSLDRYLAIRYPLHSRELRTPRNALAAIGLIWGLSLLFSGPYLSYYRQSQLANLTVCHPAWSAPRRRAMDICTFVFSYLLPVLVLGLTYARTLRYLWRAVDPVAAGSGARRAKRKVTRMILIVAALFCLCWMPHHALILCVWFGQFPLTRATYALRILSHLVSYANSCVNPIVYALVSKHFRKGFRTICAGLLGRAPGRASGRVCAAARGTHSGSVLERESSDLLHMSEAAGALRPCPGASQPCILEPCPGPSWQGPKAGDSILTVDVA
Insulin prom inh cell count – also measured in Insulin prom inh; calls as there; normalized cell count, %; measured here: cell count, toxicity; reference of the scale not given here;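 cells exposed to compound for 48 h; stained nuclei by imaging scaled within each plate; lower means fewer cells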
HSV augment primary fold – also measured in HSV augment; calls as there; fold increase; compound at 10 µM; measured here: primary screen fold increase 10 uM; tested in PC3 cells;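 GFP signal in the first replicate; 1 = infected wells without compound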
The depositor's hits bear a star. No enrichment for hits; any-hit rate near 1.3%.

`CCc1ccc(CC)c(S(=O)(=O)Nc2ccc(O)c(C(=O)O)c2)c1` gave HSV augment inactive, PKD1 inh 3, Insulin prom inh 15, RGS16-Gao 100, GALR2 ag -1.3, Insulin prom inh cell count 89 and HSV augment primary fold 0.83.
For O=C1S/C(=C\C=C\c2ccco2)C(=O)N1c1ccc(O)cc1 the results were HSV augment inactive, PKD1 inh -8, RGS16-Gao 101, GALR2 ag -1.0 and HSV augment primary fold 1.3.
For Cc1cc(Cl)ccc1OCC(=O)N/N=C1\CCCc2ccccc21 the results were HSV augment inactive, PKD1 inh -19, Insulin prom inh 17, RGS16-Gao 99, GALR2 ag -0.1, Insulin prom inh cell count 87 and HSV augment primary fold 0.85.
For CCOC(=O)CC(=O)CSc1nc2c(cc1C#N)CCCCC2 the results were HSV augment inactive, PKD1 inh 4, Insulin prom inh -9, RGS16-Gao 98, GALR2 ag -1.4, Insulin prom inh cell count 164 and HSV augment primary fold 0.98.
Screening COc1ccc(Nc2ncnc3c2cnn3Cc2ccc(C)cc2)cc1 returned HSV augment inactive, PKD1 inh -4, Insulin prom inh 3, RGS16-Gao 100, GALR2 ag -2.2, Insulin prom inh cell count 157 and HSV augment primary fold 0.96.
Screening Cc1occc1C(=O)O/N=C(\N)c1ccc(Cl)cc1 returned HSV augment inactive, RGS16-Gao 87 and HSV augment primary fold 1.
O=C(NC(Cc1ccc(F)cc1)C(=O)O)c1ccccc1 (stereo unspecified) was read as HSV augment inactive, PKD1 inh -1, Insulin prom inh -3, RGS16-Gao 102, GALR2 ag -1.6, Insulin prom inh cell count 134 and HSV augment primary fold 0.96.
Screening Cc1cc(C)cc(C(=O)N2CC(C)SC2=Nc2cccc(S(=O)(=O)N(C)C)c2)c1 (stereo unspecified) returned HSV augment inactive, PKD1 inh 0, RGS16-Gao 103, GALR2 ag 0.7 and HSV augment primary fold 0.96.
CCCCn1c(CN2CCN(C(=O)c3ccco3)CC2)nc2c1c(=O)n(C)c(=O)n2C was read as HSV augment inactive, PKD1 inh 0, RGS16-Gao 103, GALR2 ag -0.4 and HSV augment primary fold 0.81.
Screening O=S(=O)(Nc1ccc(N2CCCCC2)cc1)c1ccc(F)cc1 returned HSV augment inactive, RGS16-Gao 98 and HSV augment primary fold 1.
COC(=O)c1cccc(S(=O)(=O)N2CCC(n3nnc4cc(F)ccc43)CC2)c1 was read as HSV augment inactive, PKD1 inh 2, Insulin prom inh -15, RGS16-Gao 108, GALR2 ag -0.2, Insulin prom inh cell count 102 and HSV augment primary fold 1.2.
For COc1cccc(NC(=O)c2cccnc2)c1 the results were HSV augment inactive, PKD1 inh 3, Insulin prom inh 42, RGS16-Gao 99, GALR2 ag -2.3, Insulin prom inh cell count 99 and HSV augment primary fold 0.9.
For CCn1c(SCc2nc3ccccc3c(=O)[nH]2)nnc1C(C)NC(=O)c1ccccc1F (stereo unspecified) the results were HSV augment inactive, PKD1 inh 3, RGS16-Gao 105 and HSV augment primary fold 0.99.
For CC(C)CNc1nc(S(=O)(=O)c2ccccc2)c(Cl)s1 the results were HSV augment inactive, PKD1 inh 3, Insulin prom inh 40, RGS16-Gao 97, Insulin prom inh cell count 56 and HSV augment primary fold 1.
O=c1c2[nH]c3ccc(F)cc3c2ncn1CCCn1ccnc1 was read as HSV augment inactive, PKD1 inh 2, Insulin prom inh -6, RGS16-Gao 98, GALR2 ag -2.2, Insulin prom inh cell count 111 and HSV augment primary fold 0.99.
`NNC(=O)c1ccc(COCC(F)(F)C(F)F)cc1` gave HSV augment inactive, RGS16-Gao 98 and HSV augment primary fold 1.
Screening COc1ccc2[nH]c(=O)c(CN(Cc3cccnc3)Cc3nnnn3CC3CCCO3)cc2c1 (stereo unspecified) returned HSV augment inactive, RGS16-Gao 100 and HSV augment primary fold 0.9.
Screening CCC(C)NC(=O)C1c2ccccc2C(=O)N1Cc1ccc(OC)cc1OC (stereo unspecified) returned HSV augment inactive, PKD1 inh -4, Insulin prom inh -19, RGS16-Gao 424, GALR2 ag -2.6, Insulin prom inh cell count 113 and HSV augment primary fold 0.96.
Screening COc1nc(Nc2ccc(C(C)=O)cc2)nc(OC)n1 returned HSV augment inactive, PKD1 inh -3, RGS16-Gao 239, GALR2 ag -1.9 and HSV augment primary fold 0.98.
Screening CN1C(=O)c2ccccc2N(C)C1c1ccccc1Cl (stereo unspecified) returned HSV augment inactive, PKD1 inh 13, Insulin prom inh 35, RGS16-Gao 94, Insulin prom inh cell count 112 and HSV augment primary fold 0.94.
COC(=O)c1ccc(Sc2nnnn2-c2ccccc2)c([N+](=O)[O-])c1 was read as HSV augment inactive, PKD1 inh -2, RGS16-Gao 101, GALR2 ag -1.7 and HSV augment primary fold 0.88.
`O=C(OC1CCOC1=O)c1ccc(-c2nc3ccccc3s2)s1` (stereo unspecified) gave HSV augment inactive, PKD1 inh -16, RGS16-Gao 98, GALR2 ag -3.8 and HSV augment primary fold 1.
For CCOC(=O)NC(=S)Nc1ccc(C(C)(C)C)cc1 the results were HSV augment inactive, RGS16-Gao 101 and HSV augment primary fold 1.
Screening COc1ccc(/C=N/NC(=O)c2nc(-c3ccccc3)n(-c3ccccc3)n2)c(O)c1 returned HSV augment inactive, PKD1 inh -6, Insulin prom inh 28, RGS16-Gao 98, GALR2 ag -0.3, Insulin prom inh cell count 105 and HSV augment primary fold 0.67.
For COCCCNC(=O)Cn1cc2c(n1)CCCCC2 the results were HSV augment inactive, PKD1 inh -2, RGS16-Gao 104, GALR2 ag -1.1 and HSV augment primary fold 0.95.
Oc1c(Cl)cc(Cl)cc1C1Nc2ccccc2-n2cccc21 (stereo unspecified) was read as HSV augment inactive, RGS16-Gao 97 and HSV augment primary fold 1.1.
COc1cc(CNCCN2CCOCC2)ccc1OCc1cccc(Cl)c1 was read as HSV augment inactive, PKD1 inh 1, RGS16-Gao 101, GALR2 ag -1.2 and HSV augment primary fold 0.95.
Screening S=c1nc(-c2ccccc2)n(Cc2cccnc2)c2c1CCCC2 returned HSV augment inactive, RGS16-Gao 99 and HSV augment primary fold 0.81.
`CCC(=O)N1CCc2cc(S(=O)(=O)N3CCN(c4ccccn4)CC3)ccc21` gave HSV augment inactive, PKD1 inh -6, Insulin prom inh -43, RGS16-Gao 112, GALR2 ag -0.3, Insulin prom inh cell count 121 and HSV augment primary fold 0.97.
`Brc1ccc(-c2cnc3n2CCCC3)cc1` gave HSV augment inactive, PKD1 inh -3, Insulin prom inh -18, RGS16-Gao 98, GALR2 ag 0.5, Insulin prom inh cell count 129 and HSV augment primary fold 0.78.

Pulled by structure from the list above:
For CCOC(=O)NC(=S)Nc1ccc(C(C)(C)C)cc1 the results were HSV augment inactive, RGS16-Gao 101 and HSV augment primary fold 1.
COc1cc(CNCCN2CCOCC2)ccc1OCc1cccc(Cl)c1 was read as HSV augment inactive, PKD1 inh 1, RGS16-Gao 101, GALR2 ag -1.2 and HSV augment primary fold 0.95.
`O=C(OC1CCOC1=O)c1ccc(-c2nc3ccccc3s2)s1` (stereo unspecified) gave HSV augment inactive, PKD1 inh -16, RGS16-Gao 98, GALR2 ag -3.8 and HSV augment primary fold 1.
`Brc1ccc(-c2cnc3n2CCCC3)cc1` gave HSV augment inactive, PKD1 inh -3, Insulin prom inh -18, RGS16-Gao 98, GALR2 ag 0.5, Insulin prom inh cell count 129 and HSV augment primary fold 0.78.
COC(=O)c1ccc(Sc2nnnn2-c2ccccc2)c([N+](=O)[O-])c1 was read as HSV augment inactive, PKD1 inh -2, RGS16-Gao 101, GALR2 ag -1.7 and HSV augment primary fold 0.88.

More compounds follow.
CCc1cccc(CC)c1NC(=O)CN1CC(C)SC1=NC1CCCCC1 (stereo unspecified) was read as HSV augment inactive, PKD1 inh -2, Insulin prom inh -24, RGS16-Gao 96, GALR2 ag 0.0, Insulin prom inh cell count 89 and HSV augment primary fold 0.9.
Screening O=C(NC1CCS(=O)(=O)C1)c1sc2ccccc2c1Cl (stereo unspecified) returned HSV augment inactive, PKD1 inh 11, Insulin prom inh 23, RGS16-Gao 98, Insulin prom inh cell count 132 and HSV augment primary fold 0.91.
`COc1ccc(N2CCN(C(=O)CCN3C(=O)c4ccccc4S3(=O)=O)CC2)cc1` gave HSV augment inactive, PKD1 inh 6, RGS16-Gao 100, GALR2 ag -2.1 and HSV augment primary fold 0.87.
For CN(C)C(=S)NC(=O)c1cccc(Cl)c1 the results were HSV augment inactive, PKD1 inh 5, RGS16-Gao 100 and HSV augment primary fold 1.1.
For O=c1c(/C=N/N2CCOCC2)c(C(F)(F)F)[nH]n1-c1ccccc1 the results were HSV augment inactive, PKD1 inh -5, RGS16-Gao 102 and HSV augment primary fold 0.91.
Screening COc1cc2oc3cc(C)oc(=O)c3c2cc1OC returned HSV augment inactive, RGS16-Gao 110 and HSV augment primary fold 0.87.
Screening Cc1cc(C)c2c(c1)N[C@H](c1cccs1)[C@@H]1CCO[C@H]21 returned HSV augment inactive, RGS16-Gao 105 and HSV augment primary fold 0.97.
COc1cccc2c1c(NC(=O)Nc1ccc(F)cc1F)nn2C was read as HSV augment inactive, RGS16-Gao 95 and HSV augment primary fold 0.99.
`CCOC(=O)C1CCCN(S(=O)(=O)c2cc(Br)cc3c2N(C(=O)C2CC2)CC3)C1` (stereo unspecified) gave HSV augment inactive, PKD1 inh -6, RGS16-Gao 106, GALR2 ag -0.9 and HSV augment primary fold 0.88.
For COc1ccc(C(=O)N/C(=C/c2cccs2)C(=O)NN)cc1OC the results were HSV augment inactive, RGS16-Gao 96 and HSV augment primary fold 0.98.
COCCNC(=O)CCc1nnc(C2(c3ccc(Cl)cc3)CCC2)o1 was read as HSV augment inactive, PKD1 inh 6, Insulin prom inh -5, RGS16-Gao 97, Insulin prom inh cell count 132 and HSV augment primary fold 0.98.
CCCCc1c(O)nc2n(c1=O)CCS2 was read as HSV augment inactive, PKD1 inh -8, Insulin prom inh -24, RGS16-Gao 103, GALR2 ag 0.0, Insulin prom inh cell count 143 and HSV augment primary fold 0.88.
`CCOC(=O)C1CCCN(c2c(NCCN(C)Cc3ccccc3)c(=O)c2=O)C1` (stereo unspecified) gave HSV augment inactive, PKD1 inh -15, RGS16-Gao 99, GALR2 ag -1.0 and HSV augment primary fold 0.84.
CCOC(=O)c1cc(-c2csc(COc3ccc(Cl)cc3)n2)on1 was read as HSV augment inactive, RGS16-Gao 104 and HSV augment primary fold 0.97.
`COCCCNC(=O)c1cc2c(=O)n3cccc(C)c3nc2n(C(C)C)c1=N` gave HSV augment inactive, PKD1 inh -4, Insulin prom inh -43, RGS16-Gao 102, GALR2 ag 6.4, Insulin prom inh cell count 92 and HSV augment primary fold 1.
c1csc(-c2nc3ccccc3s2)c1 was read as HSV augment inactive, RGS16-Gao 99 and HSV augment primary fold 0.94.
Cc1cccc2cc(CN(CC3CCCO3)C(=O)c3ccncc3)c(=O)[nH]c12 (stereo unspecified) was read as HSV augment inactive, PKD1 inh -2, Insulin prom inh 38, RGS16-Gao 96, GALR2 ag -1.4, Insulin prom inh cell count 107 and HSV augment primary fold 0.95.
`COc1cc2c(c(O)c1OC)C(=O)C(OC)CCC2` (stereo unspecified) gave HSV augment inactive, PKD1 inh -11, Insulin prom inh 54, RGS16-Gao 100, GALR2 ag 0.0, Insulin prom inh cell count 113 and HSV augment primary fold 0.99.
For O=C(NC1CCCCCC1)C(=S)N1CCCC1 the results were HSV augment inactive, PKD1 inh 3, RGS16-Gao 94 and HSV augment primary fold 0.93.
For Cc1c(C(=O)NCC2CCCO2)sc2nc(-c3ccccc3)cn12 (stereo unspecified) the results were HSV augment inactive, PKD1 inh 0, RGS16-Gao 100, GALR2 ag -2.1 and HSV augment primary fold 0.99.
CCOc1ccc(C(C)=O)cc1CSc1nnc(-c2ccoc2C)n1N was read as HSV augment inactive, PKD1 inh 1, RGS16-Gao 27, GALR2 ag -0.9 and HSV augment primary fold 0.83.
Screening CN1CCN(C(=S)Nc2ccc(Oc3ccccc3)cc2)CC1 returned HSV augment inactive, PKD1 inh 0, RGS16-Gao 99 and HSV augment primary fold 0.71.
`CNC(=O)c1cc(C(=O)c2c(Cl)cccc2Cl)c[nH]1` gave HSV augment inactive, PKD1 inh -1, RGS16-Gao 105 and HSV augment primary fold 0.86.
`CCC1(C)Cc2c(sc(NC(=O)CCC(=O)O)c2C#N)CO1` (stereo unspecified) gave PKD1 inh 11, Insulin prom inh 21, RGS16-Gao 99, GALR2 ag -3.3 and Insulin prom inh cell count 105.
`CCCCCOC(=O)C1[C@H]2C(=O)N(CCCOC)C[C@]23C=C[C@H]1O3` (stereo partly specified) gave HSV augment inactive, PKD1 inh 2, Insulin prom inh -35, RGS16-Gao 102, GALR2 ag 0.2, Insulin prom inh cell count 130 and HSV augment primary fold 1.
`CC(C)CC(=O)Nc1nnc(SCC(=O)Nc2ccc(F)cc2)s1` gave HSV augment inactive, PKD1 inh -4, RGS16-Gao 99 and HSV augment primary fold 1.

Screening results as filed in PubChem.
